Sa helicase inh – S. aureus DNA helicase inhibition; purified S. aureus helicase, fluorescence unwinding assay; about half of the hits fall short of the stated cut; inhibition, %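 (tested at about 80 µM)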; 120,000 tested, 0.05% active; AID 485395;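 active means both duplicates at 50% or more, or one of them with a favoured structure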;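 further: 0% = mean of negative control wells and 100% = mean of positive control wells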
MgrA-DNA mod – alters Staphylococcus aureus MgrA binding to DNA | fluorescence polarization | inhibition, %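 (about 10 µg/mL by stock and volumes)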 | 84,000 tested, 0.13% active | AID 602314;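 active means above 50% in either of two replicates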;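 further: 0% = protein plus DNA without compound and 100% = DNA alone without protein; higher means less MgrA bound to DNA so lower polarization; one replicate is shown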
Active calls of the source: *; nt = not tested or not shown; & = joins results of further samples. Some of the compounds tested (hit frequency here may not be typical).

SMILES | Sa helicase inh | MgrA-DNA mod
C=CCSc1nc(N)cc(=O)[nH]1 | -1.0 | 2.0
O=C(NC1CCCC1)c1cc(-c2ccccc2)on1 | -1.0 | -4.8
CC(O)c1c(O)ccc2ccc(=O)oc12 (stereo unspecified) | 11.0 | nt
CCc1nnc(NC(=O)/C=C/c2ccc(S(=O)(=O)N3CCCCCC3)cc2)s1 | -4.0 | nt
O=C(O)COc1ccc2c(c1)CCCC2 | 3.0 | -5.1
CCOC(=O)c1cnn(CCOC(=O)C2CC2)c1NC(=O)C1CC1 | 10.0 | nt
Nc1nonc1-n1cc(CN2CCCCC2)nn1 | -7.0 | -0.2
Cc1ccc(C)c(N=C(N)N=C(N)N)c1 | 28.0 | 1.9
COc1cc(=O)n(C)c2cc(N(C)C)ccc12 | 14.0 | 2.3
O=C1c2cccc(Oc3ccc(Cl)cc3)c2C(=O)N1CC1CCCO1 (stereo unspecified) | 10.0 | nt
CC1CC(C)CN(S(=O)(=O)c2ccc3c(c2)oc(=O)n3CC(=O)Nc2ccccc2F)C1 (stereo unspecified) | -2.0 | nt
COc1ccccc1NC(=O)CN(Cc1ccco1)C(=O)/C=C/c1ccc(C)o1 | -8.0 | nt
CN1N=C(C(C)(C)C)CC1=O | nt | 5.6
CCOC(=O)C(C#N)=c1sc(=C(C#N)C(=O)OCC)s1 | 6.0 | nt
COc1ccc(-c2nnnn2-c2ccc(F)cc2F)cc1 | nt | 0.6
COC(=O)c1ccc(NC(=O)CCCCl)cc1 | 10.0 | -0.9
CCOC(=O)CN1NC(CC)(c2ccccc2)NC1=S (stereo unspecified) | 9.0 | -2.0
CC(=O)Oc1cn(C(C)C)c2nc(C)n3c4ccccc4nc3c12 | -159.0 | 1.4
CC(=O)NCCC(=O)Nc1ccc2c(c1)-c1ccccc1C2 | -15.0 | nt
CSc1nc2c(c(=O)n1-c1ccccc1)SCC2 | 20.0 | nt
Cc1cc(C)c2c(-n3cccc3)nn(CCCC(=O)Nc3ccc(F)cc3C)c2n1 | 6.0 | nt
N#CSc1ccc2c(c1)CCCN2C(=O)Nc1ccccc1 | 21.0 | nt
COc1ccc(/C=C(\C#N)c2ccc(C)cc2)cc1 | nt | -3.6
N#CSC(C#N)Cc1ccc(Cl)c(Cl)c1 (stereo unspecified) | -8.0 | 10.6
O=C(O)CCSc1nnc2sc3ccccc3n12 | 8.0 | 1.9

No new results follow: an excerpt of the list.
SMILES | Sa helicase inh | MgrA-DNA mod
CCOC(=O)C(C#N)=c1sc(=C(C#N)C(=O)OCC)s1 | 6.0 | nt
COc1ccc(-c2nnnn2-c2ccc(F)cc2F)cc1 | nt | 0.6

Compound profiles, from the list above. Order of values: Sa helicase inh, MgrA-DNA mod
O=C1c2cccc(Oc3ccc(Cl)cc3)c2C(=O)N1CC1CCCO1 (stereo unspecified) is listed as 10.0, nt
CCOC(=O)c1cnn(CCOC(=O)C2CC2)c1NC(=O)C1CC1 is listed as 10.0, nt
Cc1ccc(C)c(N=C(N)N=C(N)N)c1 is listed as 28.0, 1.9
Cc1cc(C)c2c(-n3cccc3)nn(CCCC(=O)Nc3ccc(F)cc3C)c2n1 is listed as 6.0, nt
COc1ccc(/C=C(\C#N)c2ccc(C)cc2)cc1 is listed as nt, -3.6

The list continues:
SMILES | Sa helicase inh | MgrA-DNA mod
N#CNC1=NCN(CCN2CCOCC2)CN1 | -10.0 | 0.8
Cc1ccc(NC=C2C(=O)OC(C)(C)OC2=O)cc1 | 10.0 | nt
O=C(CC(c1ccccc1)c1ccccc1O)N1CCCC1 (stereo unspecified) | 14.0 | nt
CC(C)c1ccc(C(O)CN2CCN(S(=O)(=O)c3cccc(C(F)(F)F)c3)CC2)cc1 (stereo unspecified) | -13.0 | nt
COc1ccc(/C=C2\SC(=O)N(Cc3ccccc3Cl)C2=O)cc1O | 6.0 | 2.8
CC(C)(Oc1ccc(Cl)cc1)C(=O)Nc1ncn[nH]1 | 8.0 | -1.6
O=C1/C(=N\O)CC2(C/C1=N/O)OCCO2 | 10.0 | 2.3
O=C(NCCN1CCN(c2cccc(Cl)c2)CC1)c1[nH]nc2c1COc1ccccc1-2 | 8.0 | nt
CSC1=NC(C)(C)CC12C=CC(=O)C(C)=C2 (stereo unspecified) | 1.0 | -0.8
COc1ccc(CNC(=O)COc2ncnc3c2cnn3-c2ccccc2)cc1 | -5.0 | nt
CC1(C)CC(CC(=O)O)C(=O)O1 (stereo unspecified) | -16.0 | nt
CN(C(=O)CSc1ccc2c(c1)OCCO2)C1CCS(=O)(=O)C1 (stereo unspecified) | 2.0 | nt
Cc1cc(-c2ccccc2)nc2c1c(=O)[nH]c(=O)n2CC(C)C | 4.0 | nt
NC(=S)Nc1ccc(C(=O)O)cc1 | 12.0 | nt
O=C(CCNC(=O)c1ccc(Cl)cc1)NN1C(=O)NC2(CCCCC2)C1=O | 0.0 | nt
O=C(CCCSc1nnc(-c2ccccc2)o1)c1ccc(Br)cc1 | -2.0 | nt
CS(=O)(=O)NNc1nccc(-c2cccnc2)n1 | 12.0 | nt
Nc1cc(-c2cccs2)nn1-c1ccc(I)cc1 | nt | -2.5
Cc1ccoc1C(=O)NCc1occc1C(=O)O | 16.0 | -0.9
COc1ccc(CC2CCC(=O)CC2)cc1 | nt | -1.5
NS(=O)(=O)c1ccc(CNC(=O)NC23CC4CC(CC(C4)C2)C3)cc1 | -12.0 | 0.0
O=C(O)CC1C(=O)NCCN1CC1CCCCC1 (stereo unspecified) | -21.0 | nt
CCOC(=O)c1oc2ccccc2c1CN(C)Cc1ccccc1F | -3.0 | nt
CC(=O)Nc1ccc(S(=O)(=O)N(C)C2CCCCC2)cc1 | -9.0 | 0.7
Cc1c2cnn(-c3ccccc3)c(=O)c2c(C)n1CCCC(=O)NC(C)c1ccccc1 (stereo unspecified) | 5.0 | nt
(continued)
SMILES | Sa helicase inh | MgrA-DNA mod
COc1cccc(NC(=S)Nc2ccc(O)cc2)c1 | nt | -0.6
CNc1c(NC(C)=O)c(=O)oc2ccccc12 | 5.0 | -1.0
CCOc1ccc(CN(C)C(=O)CNC(C)c2ccccc2OC)cc1 (stereo unspecified) | -11.0 | nt
CC1CCCC(C)N1C(=O)COC(=O)COc1ccc(C#N)cc1 (stereo unspecified) | -12.0 | nt
Cc1cc(C(=O)COC(=O)c2cnccn2)c(C)n1-c1ccc2c(c1)OCO2 | 6.0 | nt
CSC(=NCc1ccc(C)cc1)Nc1ccccc1 | nt | -0.2
NC(=O)NC(=O)CSc1ccccc1 | 13.0 | nt
C[C@H](NCCc1ccc(O)cc1)[C@H](O)c1ccc(O)cc1 | nt | 0.4
O=S(=O)(/C=C/c1ccccc1)N1CCN(Cc2nnc(-c3ccccc3)o2)CC1 | -4.0 | nt
COc1ccccc1NC(=O)NC1CC2CCCC(C1)N2C1CC1 (stereo unspecified) | 1.0 | -0.4
O=C1CCCCC1Nc1ccccc1 (stereo unspecified) | -3.0 | 5.2
COC(=O)Cc1[nH]n(-c2ccccc2)c(=O)c1C(C)=Nc1ccccc1 | 1.0 | -2.5
Clc1ccc2ocnc2c1 | nt | -2.6
CC(=O)Nc1ccc2ccccc2c1 | 0.0 | -0.3
NC(=O)C1(N2CCCCC2)CCN(C(=O)Nc2ccccc2)CC1 | 6.0 | nt
CC(C)NC(=O)N(Cc1cccnc1)Cc1ccc(Cl)cc1Cl | -5.0 | nt
Cc1nc(CSc2n[nH]c(=O)n2-c2ccccc2)cs1 | nt | -1.6
COc1cccc(CNC23CC4CC(CC(C4)C2)C3)c1OCc1ccccc1F | 1.0 | -0.8
O=C(CCn1c(=O)oc2ccccc21)NCCCN1CCN(c2ccc(F)cc2)CC1 | 11.0 | -0.8
CN(C)c1ccc(/C=C2\CCC(C3CCCC3)C2=O)cc1 (stereo unspecified) | 3.0 | 0.5
COC1(OC)C/C=C\CC(OC)(OC)C/C=C\C1 | nt | -0.1
O=C(CCn1c(=O)oc2ccccc21)N1CCCCCC1 | 14.0 | 0.6
COC(=O)c1sc(S(=O)(=O)Nc2ccc(F)cc2)cc1Cl | nt | -0.2
COc1ccc(OCC2CNC(=O)O2)cc1 (stereo unspecified) | -3.0 | -1.5
COC(=O)C(NC(=O)c1c(C)nn(C)c1Cl)c1ccccc1 (stereo unspecified) | nt | 0.0
The list continues.
SMILES | Sa helicase inh | MgrA-DNA mod
CCOC(=O)C1=C(CC)Nc2ccccc2N=C1NC(=O)c1cc(OC)cc(OC)c1 | 13.0 | nt
N#Cc1nc(-c2ccccc2)oc1NCC1CCCO1 (stereo unspecified) | -10.0 | nt
CC(=O)OC[C@@H](OC(C)=O)C(O[C@@H]1O[C@H](COC(C)=O)[C@H](OC(C)=O)[C@H](OC(C)=O)[C@H]1OC(C)=O)[C@H](OC(C)=O)[C@@H](OC(C)=O)C(N)=O (stereo partly specified) | nt | -3.1
O=C(NCC(=O)N1CCN(C(=O)c2ccccc2)CC1)c1ccccc1 | -15.0 | nt
O=C(Nc1nccs1)C(Cc1ccccc1)n1cccc1 (stereo unspecified) | 12.0 | nt
CCOC(=O)c1csc(-c2ccccc2F)n1 | 24.0 | 16.6
O=C(c1cccc(Cl)c1)N(Cc1cc2ccccc2[nH]c1=O)c1ccccc1 | -15.0 | 0.8
COCCNCc1cc(C)ccc1OC | -5.0 | nt
CCCN1C(=O)/C(=N\OCC(=O)Nc2ccc(S(=O)(=O)N3CCOCC3)cc2)c2ccccc21 | -21.0 | nt
O=C1CS/C(=C/C(=O)c2ccc(Cl)cc2)N1 | 16.0 | 1.4
CN1CCN(C2CC(=O)N(C3CCCCC3)C2=O)CC1 (stereo unspecified) | 13.0 | 0.9
CC1=C(/C=C/C(C)=C/C=C/C(C)=C\C(=O)O)C(C)(C)CCC1 | nt | 199.8&3.0&6.0
CCCn1nc(C(=O)Nc2nnc(C3CC3)s2)c2ccccc2c1=O | 19.0 | nt
Cc1ccc(C)n1-c1nn(S(C)(=O)=O)c2cccc(F)c12 | nt | -0.6
Cc1nonc1-c1cn2cc(Br)cc(Br)c2n1 | 10.0 | 0.8
COc1ccccc1S(=O)(=O)Cc1ccc(C(=O)NC(C)c2ccc3c(c2)OCCO3)o1 (stereo unspecified) | 22.0 | -0.5
Cc1ccc(-c2nnc(SCc3c(C)cc(C)cc3C)o2)cc1 | -33.0 | nt
Cc1ccc2[nH]c(CCN(C)C)c(CC#N)c2c1 | -4.0 | -0.5
COc1ccc2c(c1)CCc1c(C(=O)Nc3cccnc3)noc1-2 | 6.0 | -0.7
CCNc1nc(NCC)n2c(SCC(=O)NCC3CCCCC3)nnc2n1 | -7.0 | nt
COc1ccc(-c2nc(SC)n(C(=O)c3ccccc3OC)n2)cc1 | 11.0 | 5.2
CCOc1nsnc1N1CCOCC1 | -6.0 | nt
CCc1cccc2c(CC(=O)O)c(C)[nH]c12 | 5.0 | 7.7
CCC12CC3CC(CC(N)(C3)C1)C2 | -17.0 | nt
CCCCn1c(SCC(=O)NCC)nc2cc(S(=O)(=O)N3CCCCC3)ccc21 | 28.0 | nt

2 of the compounds above, with two lines to a compound:
Values run as follows: Sa helicase inh | MgrA-DNA mod
CCNc1nc(NCC)n2c(SCC(=O)NCC3CCCCC3)nnc2n1
  -7.0 | nt
COc1ccc(-c2nc(SC)n(C(=O)c3ccccc3OC)n2)cc1
  11.0 | 5.2

Further compounds.
SMILES | Sa helicase inh | MgrA-DNA mod
Cc1ccc2[nH]c3c(cc(Nc4ccccc4)c4c(=O)c5ccccc5c(=O)c43)oc2c1 | nt | -2.8
CCN(CC)CC(=O)c1sc2ccc(Cl)cc2c1C | nt | 0.1
CCN(CC)C(=O)c1sc2nc(C)cc(C)c2c1N | 5.0 | nt
CC1CCN(C(=O)Cn2cc(C#N)c3ccccc32)CC1 | 1.0 | -4.7
N#Cc1ccc(C(=O)OCC(=O)NC2CC2)cc1 | 27.0 | nt
CCN(CC(=O)NCc1cccs1)C(=O)Cc1csc(-c2ccccc2)n1 | 6.0 | nt
N#C/C(=C/c1ccc(Br)o1)c1ccc(C(=O)O)cc1 | 1.0 | 9.8
O=C1CC(c2ccccc2)Cc2nc(NC3CC3)ncc21 (stereo unspecified) | 2.0 | 5.2
O=C(c1cc2ccccc2c(=O)o1)N1CCN(C(c2ccccc2)c2ccccc2)CC1 | 3.0 | 1.4
CC1(C)CC(=O)C2=C(C1)c1c(ccc3ccccc13)NC2c1ccncc1 (stereo unspecified) | 9.0 | nt
CNNC(=S)NCCC1=CCCCC1 | -18.0 | nt
Cc1cccc(NC(=O)CSc2nc3c(c(-c4ccco4)c2C#N)CCCC3)c1C | 9.0 | 2.9
CC(C)(C)C(=O)N1CCN(Cc2ccccc2)CC1 | 19.0 | 4.8
O=C(O)CN1C(=O)/C(=C\c2cc(Cl)cc(Br)c2O)SC1=S | nt | 29.3
CCCCN(C(=O)c1cccs1)C1CCS(=O)(=O)C1 (stereo unspecified) | 14.0 | nt
Cc1[nH]c(=O)[nH]c(=O)c1NC(=O)CSc1nc2c(C)cccc2cc1C#N | 1.0 | -1.3
COc1cccc(CN2CCN(Cc3cccnc3)CC2)c1 | -11.0 | nt
Cc1ccc(C)n1-c1ccc(OC(F)F)cc1 | 3.0 | nt
COC(=O)c1ccc(/C=N/O)cc1 | -11.0 | nt
CCC(=O)N=c1sc2cc(C)ccc2n1C | 3.0 | nt
COc1ccccc1CC(=O)Nc1c[nH]c(=O)[nH]c1=O | 3.0 | -0.7
N#Cc1c(N)nc2c3c1NC(O)(c1ccccc1)C(C#N)C3c1cc(Cl)ccc1O2 (stereo unspecified) | 8.0 | nt
CCCCN(CC)S(=O)(=O)c1ccc(C(=O)Nc2nnc(COC)o2)cc1 | -3.0 | nt

Bioassay records as filed in PubChem.
